GIV Gai3 FP – inhibitors of GIV peptide binding to Galpha-i3, primary screen, biochemical, fluorescence polarization, FITC-GIV GBA peptide, rat Galphai3; 90 min; stronger effect = lower value; scaled: aluminum fluoride 0%, vehicle 100%; percent of control (FP), % (concentration not given with the values); 210,000 compounds, 0.42% hits;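 active = replicate mean at 85% of control or lower, very high polarization wells dropped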;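 note: wells of about 15 µL received 100 nL stock; the first replicate is given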
Target sequence (P08753 whole entry, looked up): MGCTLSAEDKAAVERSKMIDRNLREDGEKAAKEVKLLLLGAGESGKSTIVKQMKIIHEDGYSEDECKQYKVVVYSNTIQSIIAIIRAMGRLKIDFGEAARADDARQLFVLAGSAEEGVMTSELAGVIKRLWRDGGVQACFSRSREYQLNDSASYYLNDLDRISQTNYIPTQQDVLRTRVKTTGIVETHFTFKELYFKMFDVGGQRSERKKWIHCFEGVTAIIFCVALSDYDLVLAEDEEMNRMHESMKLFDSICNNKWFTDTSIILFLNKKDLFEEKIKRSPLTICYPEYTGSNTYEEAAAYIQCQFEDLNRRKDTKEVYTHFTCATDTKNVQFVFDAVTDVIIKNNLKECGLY
HCMV NEC inh – inhibitors of HCMV UL50-UL53 interaction, biochemical, HTRF; 190,000 compounds, 0.15% hits; inhibition, % (no concentration beside the values); normalized percent inhibition; HCMV UL50-UL53 nuclear egress complex (human cytomegalovirus);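 active = both replicates at 50% or more, plus weaker picks with an unusually low signal ratio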;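 note: stock transfer was 100 nL into about 20 µL; 0% = negative control wells and 100% = wells with untagged competitor protein; inactives centre near -12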
Sa growth 42C – S. aureus growth inhibition at 42 and 30 °C, primary screen, LtaS inhibitor project, RN4220, two temperatures. relative growth, % (no concentration beside the values). 170,000 compounds, 0.53% hits. AID 720641, 2013. OD600, 20 h, 42 °C; stronger effect = lower value;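 active = growth at 42 °C up to 50% and 20 or more points under that at 30 °C, or under 10% at both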;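 note: 300 nL library stock went into each well; scaled to the means of positive and negative controls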
Sa growth 42C second temp – also measured in Sa growth 42C; calls as there; relative growth, %; measured here: growth at 30 °C;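 optical density after 20 h as mean of two plates; 100% = untreated growth and lower means inhibition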
* marks the source's active call; other numbers are inactive results; / = no result given; & = joins results of further samples.

| SMILES | Sa growth 42C second temp | HCMV NEC inh | Sa growth 42C | GIV Gai3 FP |
| --- | --- | --- | --- | --- |
| CC1=NC(C(F)(F)F)(C(F)(F)F)N=C(N2CCCCC2)O1 | 91.6 | / | 79.9 | 102.4 |
| CCn1cc(C(=O)Nc2ccc(OC)cc2)c(=O)c2ccc(C)nc21 | 90.7 | / | 87.7 | 99.1 |
| CC(=O)Nc1ccc(CC#N)cc1 | 83.3 | -15.6 | 106.7 | 100.4 |
| O=C(O)c1csc(Cc2ccccc2)n1 | / | -4.9 | / | 101.2 |
| CCOC(=O)C1CCC(CN(Cc2ccccc2)S(=O)(=O)c2ccc(F)c(C)c2)CC1 (stereo not drawn) | 84.8 | / | 100.7 | 104.1 |
| Cc1ccc2nc(C)c3c(c2c1)N(c1ccccc1)CC3 | 68.5 | -87.4 | 83.7 | 109.9 |
| CC(NC(=O)Nc1ccc2c(c1)N(C)C(=O)c1ccccc1S2)c1ccccc1 (stereo not drawn) | 87.0 | / | 113.5 | 102.6 |
| COc1ccc(S(=O)(=O)N(C)c2ccnc(C(=O)N3CCC4(CC3)OCCO4)c2)cc1 | 78.7 | -25.5 | 94.2 | 100.0 |
| CNS(=O)(=O)c1ccc2c(S(=O)(=O)NC)c(OC)ccc2c1 | 97.5 | -34.1 | 125.0 | 105.3 |
| CCOc1ccc(CN2C(=O)c3ccccc3Sc3ccc(C(=O)N4CCN(C)CC4)cc32)cc1 | 84.4 | -19.0 | 98.5 | 104.1 |
| CC1CCCC(C)N1C(=O)CCN1C(=O)C2C3C=CC(C3)C2C1=O (stereo not drawn) | 90.4 | / | 91.5 | 107.6 |
| CCC1c2ccc(C)n2CCN1C(=O)Nc1ccc(C)cc1Cl (stereo not drawn) | / | -22.5 | / | 107.3 |
| Cc1onc(-c2c(Cl)cccc2Cl)c1N(C)C(=O)N1CCCCC1 | 91.5 | -27.5 | 112.9 | 103.1 |
| COC(=O)c1sc(N)c(C(=O)OC)c1CSc1nnc(Cc2csc(C)n2)o1 | 73.1 | -32.9 | 96.7 | / |
| O=C(/C=C/c1cccs1)N1CCCC1 | 90.0 | -83.0 | 102.2 | / |
| Nc1cccc(C(=O)Nc2nccs2)c1 | 78.2 | -17.9 | 100.5 | / |
| Cc1ccc(NC(=O)N2CCSc3nc(C)cc(C)c32)c(Cl)c1 | / | 3.0 | / | 102.0 |
| Cc1ccc(S(=O)(=O)Nc2ccc(OC3OC(CO)C(O)C(O)C3O)cc2)cc1 (stereo not drawn) | 86.1 | -2.2 | 100.2 | 104.1 |
| O=C(c1ccc(Cl)cc1)c1coc2c1cc(O)c1ccccc12 | 85.5 | 27.2 | 106.7 | 103.1 |
| CC(C)(C)c1ccc(OCc2nc3ccccc3n2CCOc2ccccc2)cc1 | 79.3 | -27.1 | 85.0 | 104.1 |
| CCn1cc(CCC(=O)NCc2ccccc2OC)c2ccccc21 | 89.7 | / | 105.0 | 108.5 |
| O=C(NCc1cccs1)c1ccc(CSc2nc3cccnc3n2Cc2ccccc2)cc1 | 98.5 | / | 123.3 | 103.9 |
| COc1ccc(CCNC(=O)c2ccc(Cn3c(=O)[nH]c4cc(OC)c(OC)cc4c3=O)cc2)cc1OC | 93.1 | -46.2 | 108.9 | 101.4 |
| O=C(c1sc2ncccc2c1-n1cccc1)N1CCCC1 | / | 4.1 | / | 99.1 |
| O=C(CCC1=NS(=O)(=O)c2cc(Br)cnc2N1)N1CCOCC1 | 89.0 | / | 100.1 | 104.2 |
| O=C(CCCn1c(=O)c2ccccc2n(Cc2ccc(F)cc2)c1=O)NCc1ccc(F)cc1 | 93.8 | 7.0 | 103.6 | 99.3 |
| CC(C)=NNCOc1ccc(OCc2ccccc2)cc1 | 102.5 | -2.3 | 112.0 | / |
| Cc1cc(C)n2c(SCC(=O)N3CCc4ccccc43)nnc2n1 | 94.8 | -20.0 | 96.4 | / |
| CCCc1nnc2sc(COc3ccccc3OCC)nn12 | / | -10.9 | / | 108.3 |
| C=CCn1c(SCC(=O)NC(=O)NC)nnc1-c1ccc(Cl)cc1Cl | 98.4 | -13.9 | 96.3 | / |

3 compounds drawn at random from the list so far, as already listed:
| SMILES | Sa growth 42C second temp | HCMV NEC inh | Sa growth 42C | GIV Gai3 FP |
| --- | --- | --- | --- | --- |
| Cc1ccc(S(=O)(=O)Nc2ccc(OC3OC(CO)C(O)C(O)C3O)cc2)cc1 (stereo not drawn) | 86.1 | -2.2 | 100.2 | 104.1 |
| CC(C)=NNCOc1ccc(OCc2ccccc2)cc1 | 102.5 | -2.3 | 112.0 | / |
| Cc1ccc(NC(=O)N2CCSc3nc(C)cc(C)c32)c(Cl)c1 | / | 3.0 | / | 102.0 |

Ordered by the number under Sa growth 42C second temp (descending): some entries from above.
SMILES | Sa growth 42C second temp | GIV Gai3 FP
CCOC(=O)C1CCC(CN(Cc2ccccc2)S(=O)(=O)c2ccc(F)c(C)c2)CC1 (stereo not drawn) | 84.8 | 104.1
CC(=O)Nc1ccc(CC#N)cc1 | 83.3 | 100.4
COC(=O)c1sc(N)c(C(=O)OC)c1CSc1nnc(Cc2csc(C)n2)o1 | 73.1 | /
Cc1ccc2nc(C)c3c(c2c1)N(c1ccccc1)CC3 | 68.5 | 109.9

Remaining list, next part
| SMILES | Sa growth 42C second temp | HCMV NEC inh | Sa growth 42C | GIV Gai3 FP |
| --- | --- | --- | --- | --- |
| OC1(c2cccc(C(F)(F)F)c2)CCN(c2ccc(-c3ccccc3)nn2)CC1 | 80.7 | -6.9 | 102.9 | 96.9 |
| COC(=O)c1ccc2c(c1)nc(C)n2CCO | 95.0 | / | 107.3 | 102.8 |
| COCCn1c(SCC(=O)Nc2ccccc2Cl)nc2cc(C(=O)OC)ccc2c1=O | 80.9 | -1.6 | 88.4 | 97.3 |
| COc1ccc(Nc2c3c(nc4ccc(NC(=O)c5ccc(Br)o5)cc24)CCCC3)cc1OC | 53.7 | -40.0 | 74.7 | 105.9 |
| c1ccc(-c2nnc(SCCN3CCOCC3)o2)cc1 | 93.2 | -15.0 | 107.0 | 103.0 |
| CN(C)c1ccc(-c2nnc3n(Cc4ccccc4)c(=O)c4ccccc4n23)cc1 | 74.1 | -12.0 | 110.4 | 102.4 |
| NNC(=O)CC1=Nn2c(nnc2-c2cccs2)SC1 | 70.5 | -18.6 | 91.1 | 106.2 |
| O=C(Nc1ccc(Cl)cc1Cl)c1cc(S(=O)(=O)N2CCCCCC2)ccc1F | 91.2 | / | 122.3 | 102.9 |
| CCS(=O)(=O)N1CCCc2cc(C(=O)N3CCN(c4ccc(OC)cc4)CC3)ccc21 | / | -0.4 | / | 96.5 |
| c1nc2nc3c(c(Nc4ccc(N5CCOCC5)cc4)n2n1)CCC3 | / | -25.2 | / | 100.2 |
| O=C(CSc1nc2ccccc2s1)Nc1ccc(S(=O)(=O)Nc2nccs2)cc1 | / | -0.8 | / | 95.9 |
| CSc1ncc(C(=O)Nc2cccnc2)c(C(F)(F)F)n1 | 94.3 | -10.4 | 100.3 | 112.9 |
| Cc1c(NCc2ccccc2)cccc1C(=O)O | 90.3 | -30.0 | 103.6 | 101.2 |
| O=C1CC(N2CCC(c3nc4ccccc4[nH]3)CC2)C(=O)N1 (stereo not drawn) | 72.9 | -17.5 | 82.5 | 100.9 |
| Cc1nc2ccccc2n(Cc2ccc(C(=O)NCc3cccnc3)cc2)c1=O | / | -25.4 | / | 106.2 |
| COc1ccc(/C=C2\SC(=S)N(CCC(=O)N3c4ccccc4Sc4ccccc43)C2=O)cc1 | / | -15.1 | / | 102.6 |
| COc1ccccc1NC(=O)N1CCN(c2nnc(C)c3c(C)n(-c4ccccc4)nc23)CC1 | 92.9 | 4.9 | 117.4 | 106.1&105.0 |
| CC1N=C(c2ccc(Cl)cc2)NO1 (stereo not drawn) | 84.1 | / | 107.6 | 97.9 |
| CN=C(C)/C(C(=O)OC)=C(/O)c1cc(C(F)(F)F)cc(C(F)(F)F)c1 | 78.4 | -3.3 | 108.8 | 100.6 |
| O=S(=O)(c1ccc(N2CCCCC2)cc1)C(F)(F)F | 95.6 | 2.9 | 89.7 | 105.4 |
| CCOC(=O)c1c(O)c2c([nH]c1=O)CCCC2 | 93.7 | -1.3 | 123.9 | / |
| COc1cc(C(=O)O)ccc1OCc1c(C)noc1C | 95.9 | -17.0 | 106.7 | / |
| CC12CCC(=O)N1C(C(=O)N1CCN(c3ccccc3)CC1)CS2 (stereo not drawn) | 96.3 | 0.0 | 102.1 | / |
| CC(C)(C)NC(=O)C1CC(=O)N(c2ccccc2)C1 (stereo not drawn) | 76.8 | / | 92.6 | 102.4 |
| CCN1c2cc(C)ccc2-n2cccc2C12CCNCC2 | / | -14.0 | / | 98.4 |
| N#C/C(=C\c1cnc2ccccc2n1)S(=O)(=O)c1ccccc1 | 88.5 | -48.3 | 73.6 | 116.8 |
| CN(Cc1ccccc1)C(=O)Cn1c(=O)c2cccn2c2cccnc21 | 87.2 | / | 83.5 | 100.1 |
| CCOc1cc(CNC(=O)Cn2c(=O)c3cccn3c3ccc(F)cc32)cc(OCC)c1OCC | 84.8 | 2.1 | 104.2 | 97.0 |
| CCN(CC)c1ccc2cc(C(=O)Nc3cccc(C(F)(F)F)c3)c(=N)oc2c1 | / | -6.8 | / | 104.0 |
| CCn1cc(C(=O)Nc2ccc(CC#N)cc2)c(C)n1 | 84.7 | -18.1 | 89.6 | 97.1 |
| CCCc1ccc(S(=O)(=O)N2CCC(c3ccc(=O)n(-c4ccccc4)n3)CC2)cc1 | 83.1 | / | 81.8 | 104.0 |
| CC(=S)/C=C1\Sc2ccccc2N1C | 76.4 | -97.1 | 139.8 | / |
| NC(=O)C1CCCCN1C(=O)CCCc1c[nH]c2ccccc12 (stereo not drawn) | 91.1 | -26.4 | 94.6 | / |
| Cc1cc(C)c(NC(=O)c2cnn3c(C)cc(C)nc23)c(C)c1 | / | 1.3 | / | 99.8 |
| Cc1cc(CNC(=O)Nc2ccc3c(c2)OCO3)c(C)n1-c1ccc(F)cc1 | 80.2 | -18.3 | 97.0 | 114.8 |
| CCn1nc(C(=O)NC23CC4CC(CC(C4)C2)C3)c2ccccc2c1=O | 106.5 | 22.5 | 110.0 | / |
| Cc1c(C)c(/C=N/O)c(C)c(C)c1/C=N/O | 98.3 | 2.4 | 100.2 | / |
| CCOc1cc(C2CC(=O)Nc3nc(SCc4ccccc4)[nH]c(=O)c32)ccc1O (stereo not drawn) | 80.6 | 13.1 | 109.7 | 103.4 |
| O=C1CC(N2CCN(Cc3ccccc3)CC2)C(=O)N1 (stereo not drawn) | 102.4 | -19.7 | 97.0 | 103.5 |
| CNC(=O)N(c1ccccc1)c1ccccc1 | 89.7 | -22.0 | 79.5 | 105.3 |
| Cn1nc(C(F)(F)F)c(-c2ccccc2)c1NC(=O)c1ccco1 | 94.7 | 10.7 | 91.9 | 108.1 |
| Cc1ccc(O)c(C(=O)CSc2nnc(-c3ccccn3)c(-c3ccccn3)n2)c1 | 60.7 | -87.8 | 82.3 | 102.8 |
| COc1cccc(-c2nnc(-c3ccccc3)o2)c1 | 62.8 | -2.2 | 59.6 | / |
| O=C(OCC(=O)N1CCCC1)c1ccccc1O | 84.5 | -18.2 | 98.6 | / |
| CC1CCCCC1NC(=O)c1ccc2c(=O)n(CCCN3CCCC3=O)c(=S)[nH]c2c1 (stereo not drawn) | 89.6 | / | 110.2 | 99.5 |
| CCN(CC)C(=O)COc1cc(C)c(Cl)c(C)c1 | 91.2 | -5.4 | 127.2 | / |
| COc1ccc(CN(C)C(=O)CN(C)S(=O)(=O)c2ccc3c(c2)OCCO3)cc1 | 91.3 | -20.2 | 78.6 | / |
| COc1ccc(Cl)cc1NC(=O)c1nnn(Cc2ccc(Br)cc2F)c1N | / | -28.6 | / | 104.7 |
| Cc1ccc(CS(=O)Cc2ccc(C(=O)NCCc3ccccc3)o2)cc1 (stereo not drawn) | 87.2 | -27.7 | 97.8 | 103.4 |
| CCOC(=O)c1cc(-c2ccccc2)sc1NC(=O)Cc1csc(-c2ccccc2)n1 | / | 1.0 | / | 105.2 |
| CCCc1nc2sc3c(N4CCCC4)ncnc3c2c2c1CCCC2 | 78.2 | / | 83.0 | 102.0 |
| Cc1cccc(NC(=O)NC(Cc2ccc3c(c2)OCO3)Cc2ccc3c(c2)OCO3)c1 | / | -8.1 | / | 101.6 |
| O=C(CCCO)NC1Cc2ccccc2C1 | 96.0 | 0.8 | 122.0 | 99.5 |
| Cc1c(NC(=O)c2ccc(Br)o2)cccc1-c1nc2ccccc2o1 | 91.1 | -23.3 | 94.4 | 102.1 |
| O=C1Cc2ccccc2N1c1c(Cl)cccc1Cl | 88.3 | / | 84.7 | 108.2 |
| Cc1c(Cl)cccc1NC(=O)c1oc2ccc(S(=O)(=O)N3CCC4(CC3)OCCO4)cc2c1C | 79.3 | / | 117.6 | 106.2 |
| O=C(NCCC1CCCCC1)N1CCN(c2ccccc2)CC1 | 88.7 | -7.3 | 93.7 | 100.0 |
| C=C(C)c1cccc(C(C)(C)NC(=O)N2CC(C)OC(C)C2)c1 (stereo not drawn) | 91.7 | / | 129.7 | 97.7 |
| CC(NC(N)=O)C1CC2CCC1C2 (stereo not drawn) | 90.7 | -17.8 | 91.8 | / |
| CCOC(=O)c1ccc(Nc2nc(C(=O)OCC)nc3ccccc23)cc1 | 88.6 | / | 114.5 | 102.2 |
| CCOC(=O)C1CCN(c2nc(-c3ccc(Br)cc3)nc3ccccc23)CC1 | 88.4 | / | 103.7 | 105.2 |

Not a hit list. Share with any hit: about 0.85%.
